Six1-Eya2 inh: qHTS Assay for Inhibitors of the Six1/Eya2 Interaction. AID 651725, 2012. activity change, % (no concentration beside the values). AlphaScreen GST-Six1/His-Eya2 binding, biochemical; active compounds read low; control for the full effect not named in the record. 360,000 compounds, 0.56% hits; in the data active = activity change below about -65%; inconclusive = about -30% to -65%; inactive = above about -30%; also: % is scaled to controls: 0 for no effect and ±100 for the full control effect
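Homogeneous AlphaScreen proximity assay pairing GST-Six1 with His-tagged Eya2 (added as 5X mix: 250 nM and 500 nM) in 50 mM Tris pH 8.0, 300 mM NaCl, 1 mM TCEP. Glutathione donor and nickel acceptor beads; 1 h, 37 °C, dark.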
TRPML1 agonist: qHTS for Agonists of the Human Mucolipin Transient Receptor Potential 1 (TRPML1); Mucolipin-1 (Homo sapiens), Q9GZU1; 410,000 compounds, 0.12% hits; AID 624414, 2012; activation, % (concentration not given with the values); TRPML1-expressing cells, Ca2+ dye fluorescence, FDSS; host cell line not named in the record; reference of the full effect not given here; in the data active = activation above about 50%; inconclusive = about 30% to 50%; inactive = below about 30%; also: 0% is about no effect; the text of the record puts the active cut at 80%
Target sequence (Q9GZU1 whole entry, looked up): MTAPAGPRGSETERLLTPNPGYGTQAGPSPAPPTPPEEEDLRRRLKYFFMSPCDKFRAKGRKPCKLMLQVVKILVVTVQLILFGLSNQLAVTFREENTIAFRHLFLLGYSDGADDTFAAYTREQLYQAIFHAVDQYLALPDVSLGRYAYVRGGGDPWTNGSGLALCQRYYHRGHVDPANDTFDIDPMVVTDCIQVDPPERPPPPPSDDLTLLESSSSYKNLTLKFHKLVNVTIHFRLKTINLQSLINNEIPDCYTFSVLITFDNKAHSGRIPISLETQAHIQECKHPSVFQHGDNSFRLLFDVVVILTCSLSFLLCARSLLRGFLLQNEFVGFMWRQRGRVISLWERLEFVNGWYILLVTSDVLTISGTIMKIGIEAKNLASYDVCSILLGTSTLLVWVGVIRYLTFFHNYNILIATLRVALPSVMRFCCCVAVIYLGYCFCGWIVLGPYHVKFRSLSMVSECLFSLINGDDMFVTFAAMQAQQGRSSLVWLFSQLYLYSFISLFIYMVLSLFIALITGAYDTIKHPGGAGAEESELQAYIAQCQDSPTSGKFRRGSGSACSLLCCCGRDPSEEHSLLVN
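In this qHTS format, compounds were pin-transferred onto Ca8-dye-loaded TRPML1-DL cells induced with Tet overnight, and intracellular Ca2+ fluorescence was recorded kinetically for 110 s after a 10 s baseline. A subsequent 4uM final 54-4 (EC80) addition followed by a second 110 s read served as the antagonist phase.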
D2 ag: Beta-Arrestin HTS for Positive Allosteric Modulators of the Human D2 Dopamine Receptor: Agonists. AID 624465, 2012. 360,000 compounds, 0.084% hits. D(2) dopamine receptor (Homo sapiens), P14416. DiscoveRx PathHunter D2 beta-arrestin, luminescence, 90 min; 100% = 57 uM dopamine signal. activation, % (concentration not given with the values); in the data active = activation above about 40%; inconclusive = about 15% to 40%; inactive = below about 15%; also: the text of the record calls up to 30% inactive
Target sequence (P14416 whole entry, looked up): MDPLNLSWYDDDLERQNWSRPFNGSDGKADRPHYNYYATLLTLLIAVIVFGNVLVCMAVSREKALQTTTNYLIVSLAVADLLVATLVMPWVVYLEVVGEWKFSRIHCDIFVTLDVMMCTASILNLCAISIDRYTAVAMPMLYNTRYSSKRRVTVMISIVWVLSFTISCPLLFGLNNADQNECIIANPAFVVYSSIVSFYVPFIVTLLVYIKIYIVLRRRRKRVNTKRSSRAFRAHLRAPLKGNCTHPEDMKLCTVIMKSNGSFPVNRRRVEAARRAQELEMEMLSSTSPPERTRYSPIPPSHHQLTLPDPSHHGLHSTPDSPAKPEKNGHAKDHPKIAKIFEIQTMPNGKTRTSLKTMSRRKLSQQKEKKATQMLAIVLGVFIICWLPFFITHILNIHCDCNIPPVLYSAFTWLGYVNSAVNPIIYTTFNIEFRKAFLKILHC
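Agonist mode: compounds alone added to overnight-plated D2 PathHunter cells for 90 min at 37 C, with 57 uM final dopamine (EC100) defining full response. Beta-arrestin recruitment detected by chemiluminescent reagent, read after 1 h at ambient temperature.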
PINK1 expr mod: A Quantitative High throughput Screen to Identify Chemical Modulators of PINK1 Expression; PINK1 immunofluorescence, high-content cytometry, 24 h; Potency, µM (titrated, usually from 76.6 µM), inactives show at the top dose activation (PINK1 increase), most hits filed as activators; 410,000 compounds, 0.2% hits; AID 624263, 2012; active = well fitted activation curve with a large enough effect; inconclusive = small, poorly fitted or top-dose-only effect; inactive = flat fitted curve, though single readings scatter; cell line not stated here;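 also: potency is read from the fitted curve at half-maximal effect; % of control where 0% means no effect; nearly all actives have a fitted effect of over 65% in size; a mitochondrial uncoupler was the plate control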
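PINK1 protein, normally rapidly degraded, was detected by immunofluorescence after 24 hour compound treatment of a stable cell line. Titration data (5 concentrations) came from laser-scanning cytometry, with CCCP-treated wells as controls.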
CtBP-E1A inh: qHTS Assay for Inhibitors of the CtBP/E1A Interaction | CtBP / adenovirus E1A interaction (AlphaScreen) | AlphaScreen GST-E1A/His-CtBP binding, 1536-well; active compounds read low; control for the full effect not named in the record | activity change, % (concentration not given with the values) | 340,000 compounds, 0.49% hits | AID 651724, 2012; in the data active means activity change below about -65%; inconclusive means about -30% to -65%; inactive means above about -30%; also: % is scaled to controls: 0 for no effect and ±100 for the full control effect
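In 5 uL wells, 23 nL compound meets equimolar GST-E1A and His-CtBP (5X stock 125 nM each) for 2 h, 37 °C. Beads (5X, 50 ug/mL) then 1 h, 37 °C, dark.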
TRPML1 blocker: qHTS for Inhibitors of the Human Mucolipin Transient Receptor Potential 1 (TRPML1); activity change, negative = inhibition, % (no concentration beside the values); AID 624415, 2012; TRPML1-inducible cells, Ca2+ dye fluorescence, FDSS; active compounds read low; inhibition of EC80 agonist-evoked calcium signal; Mucolipin-1 (Homo sapiens), Q9GZU1; 390,000 compounds, 0.02% hits; in the data active means activity change below about -50%; inconclusive means about -30% to -50%; inactive means above about -30%;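 also: stimulus is agonist 54-4 at its EC80 concentration; % is scaled to controls: 0 for no effect and ±100 for the full control effect; compound concentration not given in the record; the text of the record puts the active cut at -80%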
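Calcium fluorescence in TRPML1-DL cells induced overnight with Tet: a 110 s read after compound pin addition, then a 110 s antagonist read after challenge with 54-4 at 4 uM final (EC80).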
Active calls of the source: *; ? = inconclusive; . = not tested or not shown; [ ] = dose if it differs, or a comment.

Values run as follows: Six1-Eya2 inh	TRPML1 agonist	D2 ag	PINK1 expr mod	CtBP-E1A inh	TRPML1 blocker
CC1=C(c2ccc(C(C)C)cc2)S(=O)(=O)N=C1N1CCC(C(=O)NCc2ccc(C)o2)CC1
 : .	2.3	.	3.3%	.	13
Cc1csc(SCC(=O)NC(=O)NCCC(C)C)n1
 : 4	1.9	2.1	-2.1%	0	15
CC(C)C(NC(=S)Nc1ccccc1)C(=O)O (configuration not stated)
 : 0	-0.6	-1.3	3.1%	4	12
CC(=O)C1=C(O)C(=O)N(Cc2ccccc2)C1c1cccc([N+](=O)[O-])c1 (configuration not stated)
 : -7	-0.2	-1.3	2.6%	-22	-3
CCOc1ccc(CCNC(=O)CSc2ncn[nH]2)cc1OCC
 : 0	-0.6	-0.8	0.5%	2	-8
Cc1[nH]c2ccccc2c1CCNC(=O)c1c(N)no[n+]1[O-]
 : -5	-0.1	-5.1	-1.2%	-6	9
CS/C(=N\S(=O)(=O)c1ccccc1)c1ccccc1
 : 4	-0.2	-1.0	-0.4%	14	-5
C/C(=N\N(C)C)C1=C(O)c2ccccc2C1=O
 : 1	1.7	0.3	0.7%	-8	1
O=C(c1ccc(F)cc1)c1cn(Cc2ccccc2F)c2cc3c(cc2c1=O)OCCO3
 : .	2.0	.	-0.3%	.	2
Brc1ccc(-c2nnc3sc(CN4CCC5(CC4)OCCO5)cn23)cc1
 : 3	0.7	-0.7	29%[38.3 µM]	1	32
COc1cc(/C=C/C(=O)N2CCN(CC(O)COc3ccccc3)CC2)cc(OC)c1OC (configuration not stated)
 : 0	-1.0	-7.6	1.8%	-1	-13
CC(C)(C)OC(=O)NCCCCCc1nnc(SCc2ccccc2)o1
 : 15	2.2	2.6	-0.1%	8	-14
COc1ccc(S(=O)(=O)NCCC(=O)NCc2ccc(F)cc2)cc1
 : 1	-0.3	0.6	-3.0%[38.3 µM]	3	-2
CC(C)(C)OC(=O)N1CCC2(CC1)Oc1ccc(F)cc1C(=O)C21CC(c2ccccc2)=NO1 (configuration not stated)
 : -9	0.9	-1.4	1.0%	-6	30
CCN(CC)c1nn2c(=O)c(C(=O)NCCc3ccc(C)cc3)cnc2s1
 : .	0.1	.	-0.8%	.	-15
c1ccc(C(c2nnnn2C2CCCC2)N2CCCCCC2)nc1 (configuration not stated)
 : -6	0.6	-1.0	2.2%[38.3 µM]	-4	13
CN(C(=O)COc1cc(=O)n(C)c2ccccc12)c1ccc(Br)cc1
 : -3	0.8	0.7	3.2%	8	-7
CC(=O)c1c(C)nc2nc(-c3ccccc3)nn2c1C
 : .	0.5	.	-0.5%	.	-4
CC(C)n1c(NCc2ccc(Cl)cc2)nc2ccccc21
 : -8	-1.0	-3.3	?	8	-1
O=C(COc1ncnc2ccccc12)N1CCOCC1
 : 0	0.4	-3.3	3.6%	-2	-14
CCC(=O)Oc1ccc2ccccc2c1CNC(=O)c1ccccc1
 : 4	1.8	-2.6	12%	-1	8
O=C(c1ccc2c(c1)N(Cc1ccccc1)CCS2)N1CCCCC1
 : -10	1.6	-3.5	0.3%	-1	49
O=C(CN1CCCCCC1)N1c2ccccc2Sc2ccc(C(F)(F)F)cc21
 : -14	1.7	-3.9	.	45	14
O=C1c2ccccc2-c2c1cccc2C(=O)N(CCO)CCO
 : 3	0.2	-2.2	?	1	-3
O=C(COC(=O)CNC(=O)C1CCCCC1)Nc1ccc(Cl)cn1
 : 5	0.0	0.7	-3.2%	-4	9
COc1ccc(S(=O)(=O)NCCN2CCOCC2)cc1Br
 : 7	0.6	-0.2	0.0%	-22	-19
O=C(NCCC(=O)N1CCCCC1)c1ccccc1Cl
 : 1	-0.5	-0.5	0.1%	1	6
CS(=O)(=O)NCCNC(=O)c1cc(OCC(F)(F)F)ccc1OCC(F)(F)F
 : 10	0.3	-3.5	0.4%	3	5
Clc1ccc(C2=NCCn3nc4ccccc4c32)cc1
 : 4	0.5	-1.7	0.9%	-1	-8
COc1ccc2sc(-c3ccccc3OC)c(C#Cc3cncn3C)c2c1
 : 0	-0.6	-0.7	5.8%	13	-10
Cc1ccc(NN=C2C(=O)OC(C)(C)OC2=O)c(C)c1
 : -10	-0.1	-3.5	3.5%	?	11
Cc1c(Cl)cccc1NC(=O)c1noc2c1CCCC2
 : .	0.1	.	0.1%	.	7
CC1=NN(c2ccc(C)cc2)C(=O)/C1=C/c1ccc(-c2cc([N+](=O)[O-])ccc2O)o1
 : -2	.	-1.9	?	.	.
Cn1nnnc1SCC(=O)NCCc1ccc(Cl)cc1
 : -9	-0.2	-5.4	-1.8%	-3	14
O=Nc1c(O)c2ccccc2c2ccccc12
 : -11	8.3	11	-1.3%	2	-7
Clc1ccc(-c2ccnc3nc(N4CCOCC4)nn23)c(Cl)c1
 : 0	0.3	-0.1	-1.6%	-4	-1
O=c1c2cc(N3CCOCC3)ccc2[nH]c(=S)n1Cc1ccccc1Cl
 : 21	-0.6	3.0	9.2%	2	11
COc1ccc(NC(=O)CN(C)C(=O)c2ccccc2Sc2ncnc3sc(C)c(C)c23)cc1
 : -2	-0.2	-3.0	0.2%	0	-4
Cc1ccnc(NC(=O)c2cccc(NC(=O)c3ccc(Cl)cc3)c2)c1
 : -7	1.7	-4.6	0.5%	1	-1
CCCC(C(=O)NC(C)(C)C)N(Cc1ccccc1Cl)C(=O)c1snc(C(N)=O)c1N (configuration not stated)
 : -7	2.8	1.0	14%	8	42
FC(F)(F)c1nc2ccccc2n1CCNc1nc(CN2CCCCC2)cs1
 : 0	0.1	-7.0	1.3%	3	-14
CSc1ncccc1C(=O)Nc1nnc(C2CC2)s1
 : -9	0.2	-3.5	-0.1%	15	-6
Cc1cc(C(=O)NN=C2CC(=O)CC(C)(C)C2)c(C)o1
 : -3	-0.4	-2.1	1.5%	-16	23
COc1ccc(Cl)cc1NC(=O)CN(C)C(=O)c1ccc(-n2nc(C)cc2C)cc1
 : -1	0.4	3.1	1.4%	-1	29
COc1cccc(NC(=O)c2ccc3c(=O)n4nc(Nc5ccccc5OC)sc4nc3c2)c1
 : .	0.3	.	-1.4%	.	12
CCOC(=O)C1CCCN(C(=O)CCCn2c(=O)c3cccn3c3cccnc32)C1 (configuration not stated)
 : 4	-0.4	2.2	-2.3%	-17	-3
COc1ccc(/C=N/NC(=O)CNC(=O)c2cccs2)cc1
 : 3	0.8	-0.6	0.1%	-20	34
Cc1cc(NC(=O)c2cc(-c3cccc(Cl)c3)on2)no1
 : 3	0.2	-1.2	5.4%[38.3 µM]	5	4
O=C(Cc1ccc(-n2c(=O)c3ccccc3n(Cc3ccccc3Cl)c2=O)cc1)NCC1CCCO1 (configuration not stated)
 : 5	0.4	-11	-0.1%	.	27
O=C(CSc1n[nH]c(-c2ccccc2Cl)n1)NC1CCCCC1
 : -29	-0.2	-2.0	-3.0%	0	9

The list continues:
Values run as follows: Six1-Eya2 inh	TRPML1 agonist	D2 ag	PINK1 expr mod	CtBP-E1A inh	TRPML1 blocker
O=C(NCc1ccco1)c1cc(-c2ccco2)on1
 : -1	1.2	-4.2	27%[38.3 µM]	3	9
COc1cccc(NC(=O)CSC2=Nc3ccccc3C3=NC(CC(=O)NCc4cccs4)C(=O)N23)c1 (configuration not stated)
 : .	-0.2	.	0.1%	.	-25
O=C(C1CCCN(S(=O)(=O)c2cccc3nonc23)C1)N1CCN(c2ccccc2F)CC1 (configuration not stated)
 : .	-0.8	.	8.3%	.	-9
COc1ccc(OC)c(CC(=O)Nc2ccc3c(c2)CCC3)c1
 : -2	1.1	-2.8	3.1%	-10	29
CCOc1ccc(C=Nc2cccc3ncccc23)cc1
 : -2	0.3	-0.3	0.4%	.	-4
Cc1cc(NC(=O)CSc2ccc3nnc(-c4cccc(F)c4)n3n2)no1
 : -21	0.5	1.1	0.1%[38.3 µM]	-2	6
Cc1nc2ccc(C(=O)N3CCSCC3)cc2s1
 : 4	-1.2	-1.9	0.0%	-1	6
CCOc1cc(/C=N/NC(=O)CCc2n[nH]c(=O)[nH]c2=O)ccc1O
 : -11	-0.1	-0.6	-1.5%	-16	0
COc1cc2[nH]c(=O)n(CCCCCC(=O)NCCCN3CCOCC3)c(=O)c2cc1OC
 : -17	0.3	-3.4	2.1%	-15	26
CC(=O)Nc1ccc(NCCc2ccco2)cc1
 : -2	-0.1	-5.1	3.6%	3	-9
Cc1ccc2c3c1C(=O)C(=O)N3C(C)(C)CC2C (configuration not stated)
 : -9	1.7	-0.1	3.4%[38.3 µM]	-6	14
CCOC(=O)[C@]12CCC=C1N(Cc1ccco1)C(=O)[C@H](CC(=O)NCc1ccc(OC)c(OC)c1)C2
 : -4	-1.1	.	2.3%	4	.
Cc1c(Cl)cccc1NC(=O)CSc1ncnc2c1cnn2CCO
 : 1	0.5	-0.9	6.3%	-3	2
CCN(CC(=O)Nc1ccc(NC(C)=O)cc1)C(=O)C1CC(=O)N(c2ccc3c(c2)OCCO3)C1 (configuration not stated)
 : 0	-0.2	-3.1	-1.3%	-2	-4
O=C(CN1CCOCC1)Nc1ccc([N+](=O)[O-])cc1
 : 7	.	7.2	0.2%	.	.
Cc1ccc(-c2nn(C)c(=O)c3ccccc23)cc1CNC(=O)CSc1nc2ccccc2o1
 : -1	-1.3	-1.9	-0.7%	2	-12
C/C(=N/NC(=O)c1ccc(C)s1)c1cccc(NC(=O)COc2ccc(Cl)cc2C)c1
 : 8	0.9	-0.5	6.9%	4	52
COc1cccc2c1cc1c(=O)n(CC(=O)NC3CC3)nc(C)n12
 : .	1.1	.	-0.5%	.	10
Cc1ccc(C(=O)C2=C(O)C(=O)N(Cc3ccccc3)C2c2cccnc2)o1 (configuration not stated)
 : 6	3.3	2.2	0.3%[38.3 µM]	4	8
OCCn1nc(-c2ccccc2)cc1-c1ccccc1
 : 0	-1.3	3.6	0.1%	.	-3
Cc1ccc(-c2nc(NCCCN(C)C)c3ccccc3n2)cc1
 : -20	-0.2	-10	2.4%	-2	7
COc1ccc(-c2ccc(OC)c([C@H]3[C@H]4C=CC[C@@H](C)[C@@H]4C(=O)N3Cc3ccccc3)c2)cc1OC
 : -10	2.7	-3.4	1.0%	0	22
COC(=O)C1(CC2CC(c3cccc(Br)c3)=NO2)CCN(C(=O)OC(C)(C)C)CC1 (configuration not stated)
 : 6	2.1	-1.0	-0.1%	0	60
CCN(Cc1ccc(NC(C)=O)cc1)CC1CCCN(CCc2cccc(F)c2)C1 (configuration not stated)
 : 7	-0.1	-6.3	-1.4%	.	-14

Screens as filed in PubChem.
